# Screens (PubChem BioAssay)
# VCAM-1 up = enhancers of VCAM-1 display on endothelial cells, cell-based, plate reader, pooled HUVEC, TNFa stimulus (AID 455); augmentation, % at 5 µM; actives 0.2% (n = 10,000); HUVEC TNFa-induced VCAM-1 immunofluorescence, plate reader; numbers were filed only for top-ranked candidate wells;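 active = a compound raising TNF-alpha-driven VCAM-1 surface staining, with its hit status upheld on visual or statistical review; inactive = the rest, including hits rejected on review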;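 note: 0% = TNFa with vehicle and 100% = strongest image-checked hit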
# 26S disassembly = blocks ATP-dependent breakdown of the yeast 26S proteasome; anti-FLAG beads, GFP-proteasome disassembly, flow cytometry; inhibition of disassembly, % (concentration not given with the values); actives 0.2% (n = 24,000);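 active = above 40%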;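 note: plate controls were ATP control with full disassembly for no effect and ATP-gamma-S intact proteasomes for full effect; higher percent means more bead fluorescence retained so stronger block of disassembly; stock transfer was 100 nL into about 10 µL; wells with too few beads may also be inconclusive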
# * marks the source's active call; other numbers are inactive results; i = inactive; & = joins results of further samples.
SMILES,VCAM-1 up,26S disassembly
CC[C@@H]1C(=O)OC[C@@H]1Cc1cncn1C,i,0.5&-0.3

# Only part of the results is shown. The share of hits here may be higher or lower than overall.
